Screens deposited in PubChem by ICCB-Longwood Screening Facility, Harvard Medical School.
Ab BasE inh – BasE siderophore biosynthesis inhibition; AID 485350; 0.1% of 84,000 active; inhibition, % (concentration not given with the values); purified BasE, fluorescence polarization binding displacement;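 active means both replicates above 25% with normal brightness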;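 further: 0% = negative plate control signal and 100% = positive plate control signal; stock transfer was 100 nL into about 30 µL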
KSHV LANA nucl – inhibitors of KSHV LANA binding to nucleosomes; FITC-LANA1-23 / chicken nucleosome fluorescence polarization; active compounds read low; z-score (concentration not given with the values); 0.3% of 51,000 active;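 active means both repeat wells score below -2 in polarization z-score versus plate sample wells, excluding overly bright wells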;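 further: 100 nL library stock added to about 30 µL; numbers are from one replicate; some results filed as inactive read as strong as hits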
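Test system: purified chicken nucleosomes with FITC-labelled LANA N-terminal peptide (1-23); Input: 240 nM purified chicken nucleosomes (480 nM peptide binding sites), final; Medium: TEN-BT buffer, pH 7.5; Timing: 10–45 min, room temperature; Technique: fluorescence polarization, 480 nm excitation, 535 nm parallel and perpendicular emission; Replication: duplicates.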
* = called active by the depositor; . = not tested or not shown; & = joins results of further samples. Not all compounds are listed (hit frequency here may not be typical).

SMILES	Ab BasE inh	KSHV LANA nucl
CCOC(=O)C1=C(C)NC(C)=C(C(=O)OCC)C1C(=O)OCC(=O)NCc1ccccc1OC	2.5	.
N#Cc1c[nH]n2c(=O)cc(Cc3ccccc3)nc12	-1.9	1.1
CCC1CCCCN1C(=O)CSc1nc2c(c(=O)n1C)SC(C)C2 (configuration not stated)	-0.1	-0.61
Nc1c(Cl)ncnc1NCCO	2.2	0.32
CSc1ncc(Cl)c(C(=O)Nc2c(C(=O)Nc3ccc(C)cc3)oc3ccccc23)n1	-1.8	2.2
Cc1ccccc1C(OCC(O)CN(C)C1CCN(C)CC1)c1ccccc1 (configuration not stated)	-1.9	.
CCOC(=O)C1CCN(C=Nc2cc(C)on2)CC1	2.5	.
CCn1c(O)c(C=Nc2ccc(C)cc2)c(=O)n(CC)c1=S	0.8	.
CN1CCN(c2ccc(NC(=O)c3cccs3)cc2)CC1	.	-0.27
O=C(Oc1c(-c2ccccc2)c(=O)n2c3c(cccc13)CC2)c1ccccc1	4.2	.
CCc1cccc(NC(=O)Cn2cc(S(=O)(=O)N3CCCC3)c(S(=O)(=O)N3CCCC3)c2)c1	-2.7	.
CCN1C(=O)C2C(c3ccc(O)cc3)NC(CO)(C(=O)OC)C2C1=O (configuration not stated)	-1.2	0.61
O=C(O)CC1OC(=O)c2ccccc21 (configuration not stated)	0.7	0.15
Cc1nc(COc2ccc(C(C)(C)C)cc2)[nH]c(=O)c1Cl	1.1	0.91
O=C1CC(CSc2ccc(Cl)cc2)=NN1c1nc2ccccc2s1	1.8	.

Entries of single compounds, quoted from the list. Screens in order: Ab BasE inh, KSHV LANA nucl
CCOC(=O)C1CCN(C=Nc2cc(C)on2)CC1 in the list: 2.5, .
Nc1c(Cl)ncnc1NCCO in the list: 2.2, 0.32
CCn1c(O)c(C=Nc2ccc(C)cc2)c(=O)n(CC)c1=S in the list: 0.8, .

Carrying on.
SMILES	Ab BasE inh	KSHV LANA nucl
O=C(Cn1cnc2ccccc21)N/N=C1/CCSc2ccc(F)cc21	3.8	.
COc1cc(S(=O)(=O)Nc2ccccc2NC(=O)CN2CCOCC2)c(OC)cc1NC(C)=O	-0.2	-0.35
O=C(Nc1cc(OCC(F)(F)F)cc(OCC(F)(F)C(F)F)c1)c1ccco1	0.9	-0.55
COc1ccc(CNc2nonc2C)cc1	-0.4	0.36
Nc1c(C(=O)c2ccccc2)sc2nsc(SCCN3CCCC3)c12	.	1.8
O=C(Cn1ncc(Cl)c(Cl)c1=O)N1CCN(Cc2ccccc2)CC1	-0.6	.
CCOc1cc(CNn2cnnc2)ccc1OCC(=O)NC1CCCCC1	0.0	0.15
O=C(O)c1cc2ccccc2c(=O)s1	4.9	-0.092
CC(/C(O)=C(\C#N)c1nc2ccccc2[nH]1)N1C(=O)c2ccccc2C1=O (configuration not stated)	-2.4	.
CCc1[nH]nc2c1C(c1ccc(F)c(Oc3ccccc3)c1)C(C#N)=C(N)O2 (configuration not stated)	3.3	0.11
Cc1csc(C(C#N)C(=O)CSc2nnnn2C2CCCC2)n1 (configuration not stated)	2.9	.
O=C(c1cccs1)N1CCCCC1c1ccccn1 (configuration not stated)	.	-1.3
CCC(C)N(C(=O)CSc1ccc2c(c1)OCCO2)C1CCS(=O)(=O)C1 (configuration not stated)	0.8	.
CCCN1C(=O)C2C(c3ccc(O)cc3)NN(Cc3ccccc3)C2C1=O (configuration not stated)	3.2	0.016
O=S(=O)(c1ccc(O)cc1)c1ccc(Cl)cc1	16	.
CCCn1ccc2c(OCC(=O)c3ccccc3)cccc2c1=O	-2.1	-0.89
CCc1ccc(NC(=O)N2CC(C)CC(C)C2)cc1 (configuration not stated)	0.3	0.85
COc1cc(C)c2c(=O)c(-c3nc(C)cs3)coc2c1	-4.1	0.75
O=C(Cc1cn2ccsc2n1)NC12CC3CC(CC(C3)C1)C2	0.2	.
CNC(=O)CCCN1C(=O)c2ccccc2C1=O	3.2	-1.6
Cc1ccc2c(c1)N(CC(N)=O)C(=O)CO2	4.4	-1.1
O=C(C1CCN(S(=O)(=O)c2cccs2)CC1)N1CCCC1c1nc2ccccc2s1 (configuration not stated)	2.2	.
CCOC(=O)c1sc(N)c(C#N)c1CSc1nnc2ccccn12	-0.4	.
O=CN(c1ccccc1)c1ccccc1	0.8	-0.53
O=S(=O)(c1ccc(Cl)cc1)N1CCNCC1	0.6	.
CCC(=O)NCC[C@@H]1CCc2ccc3c(c21)CCO3	0.6	-0.35&-0.82
CC(C)CN(CC(C)C)C(=O)CSc1nc2ccccc2[nH]1	-0.3	-0.98
Cc1nnc2sc(-c3cccc(NC(=O)c4cccc(F)c4)c3)nn12	1.6	-0.17
COCCN1C(=O)c2ccccc2N2C(=O)CCC12C(=O)Nc1ccc(C)cc1 (configuration not stated)	1.4	.
O=C1CC(c2ccc(F)cc2)CC(O)=C1C=NCCN1CCN(C(=S)Nc2ccccc2)CC1 (configuration not stated)	0.2	.
Cc1ccc(N)c(C(NCC(=O)NN)c2ccccc2)c1 (configuration not stated)	2.3	.
C=CCn1cnnc1SCC(=O)c1cc(C)n(CC(F)(F)F)c1C	-68	.
CCOc1ccc(S(=O)(=O)Nc2cc(C(C)(C)C)nn2-c2ccccc2)cc1	0.4	.
CN(C)S(=O)(=O)c1ccc(C(=O)OCC(=O)c2cn(CCC#N)c3ccccc23)cc1	-11	.
O=c1ccc(-c2nc3cc(Cl)c(Cl)cc3[nH]2)c[nH]1	.	2.4
NC(=O)c1ccc2nc3ccsc3c(=O)n2c1	0.3	.
NC(=S)NN1C(=O)C2CC=CCC2C1=O (configuration not stated)	0.7	.
CC12CC3(C)CC(C)(C1)CC(C(=O)NC(=S)N1CCCC1)(C2)C3	-0.2	.
Nc1nncn1C(=O)c1ccc(Br)cc1	0.7	0.19
Clc1ccc(-c2cn3cccnc3n2)cc1	1.2	0.97
NS(=O)(=O)c1ccc(N2C(=O)Nc3ccccc3N2O)cc1	-0.1	-0.62
C=C(C)CNC(=S)N=Nc1c(O)n(C)c2ccccc12	2.0	.
O=C(CSc1nnc(-c2ccc(NS(=O)(=O)c3ccccc3)cc2)o1)NCC1CCCO1 (configuration not stated)	0.8	0.6
CCc1nc(SCC#N)c(C#N)cc1C	-0.8	1.8
NC(=O)C1CCN(c2ncnc3c2cnn3-c2ccccc2)CC1	1.8	-0.54

At a glance, part of the list above.
SMILES	Ab BasE inh	KSHV LANA nucl
CCc1nc(SCC#N)c(C#N)cc1C	-0.8	1.8
NC(=O)C1CCN(c2ncnc3c2cnn3-c2ccccc2)CC1	1.8	-0.54

Further records follow.
SMILES	Ab BasE inh	KSHV LANA nucl
CCCNC(=O)c1ccc(Cl)c(S(=O)(=O)Nc2ccccc2)c1	0.6	-0.017
O=S(=O)(NCC(c1cccnc1)N1CCN(c2ccccc2F)CC1)c1cccs1 (configuration not stated)	-1.7	2.2
Cn1c(Sc2ncc(C#N)c(N)n2)nnc1-c1ccncc1	0.0	-0.003
O=C(Oc1ccccc1Cl)C1=CC=CN2CCS(=O)(=O)N=C12	0.8	.
CC(NS(=O)(=O)c1cccc2nsnc12)C(=O)OCc1cccc(C(F)(F)F)c1 (configuration not stated)	-0.8	.
CC1=C(C(=O)Nc2ccc(Cl)cn2)C2(CCCCCC2)OC1=O	2.6	-1.3
Cc1noc(C)c1CSc1ncccc1C(=O)N(C)c1ccc2ccccc2c1	1.6	.
CN(C)S(=O)(=O)c1ccc(C(=O)Nc2ccccc2C(=O)NCc2ccc3c(c2)OCO3)cc1	-2.1	.
CCC1(C)NC(=O)N(Nc2ncnc3sc4c(c23)CCC4)C1=O (configuration not stated)	0.5	.
O=C(O)c1cc(N2C(=O)C3C4c5ccccc5C(c5ccccc54)C3C2=O)ccc1N1CCOCC1 (configuration not stated)	0.0	0.069
Cc1ccc(C)c(SCC(=O)C(C#N)c2nc(C)cs2)c1 (configuration not stated)	-0.7	.
FC(F)(F)c1cc(C(F)(F)F)c2ccc3nnnn3c2n1	.	0.43
Cc1ccc(N(Cc2ccco2)C(=O)COc2ccc3oc(=O)cc(C)c3c2)cc1	4.8	0.57
CC(OC(=O)/C=C/c1cccs1)C(=O)Nc1ccc(S(N)(=O)=O)cc1 (configuration not stated)	0.4	.
O=c1[nH]c(=S)[nH]c(O)c1N=Nc1ccc(F)cc1	-0.5	.
CCOC(=O)C1=C(C)C(c2ccc(OC)cc2)NC(=O)N1 (configuration not stated)	1.5	-1.2
C=CCn1cnc2c(nnn2-c2ccc(OC)c(OC)c2)c1=O	-1.0	0.45
O=C(CC1Nc2c3ccccc3nc(=S)n2C1=O)NCc1cccc(Cl)c1 (configuration not stated)	-2.8	0.83
COC(=O)N/N=C(\C)c1ccccc1OC	1.0	.
COC(=O)c1cn(CC(=O)OCc2ccc(-n3nc(C)cc3C)cc2)c2ccccc12	-0.6	.
C(=C\c1ccccc1)/CSc1nnc(-c2cccnc2)o1	-5.0	.
Cc1nn(Cc2ccccc2Cl)c2sc(C(=O)Nc3sccc3C(N)=O)cc12	-19	.
CC(C)(C)N1C(=O)NC(=O)/C(=C\c2ccc(N3CCCC3)cc2)C1=O	0.2	1.3
Cc1ccc2nc(Cl)sc2c1	1.9	-0.23
CCS(=O)(=O)NCCc1csc(-c2ccc(OC)c(OC)c2)n1	-3.4	0.42
C=CCn1c(-c2ccncc2)nn(CN(C)CCc2ccc(OC)c(OC)c2)c1=S	2.7	.
O=C(OCC1CCNCC1)c1ccc(F)cc1	-2.8	2.6
CCSc1sc(CC)cc1C1C(C(=O)Nc2cccnc2)=C(C)NC2=C1C(=O)CCC2 (configuration not stated)	1.0	.
OCC[n+]1ccc(/C=C/c2c[nH]c3ccccc23)cc1	-5.7	.
O=C(Cc1cccs1)NCC1(N2CCCCC2)CCCCC1	0.9	.

Looked up by compound from above:
SMILES	Ab BasE inh	KSHV LANA nucl
COc1ccc(CNc2nonc2C)cc1	-0.4	0.36
CCc1ccc(NC(=O)N2CC(C)CC(C)C2)cc1 (configuration not stated)	0.3	0.85
CCOC(=O)C1CCN(C=Nc2cc(C)on2)CC1	2.5	.
O=C(O)c1cc2ccccc2c(=O)s1	4.9	-0.092

Next section
SMILES	Ab BasE inh	KSHV LANA nucl
CCC(C)Nc1nc(NC(C)C)nc(Oc2ccc(C(=O)OC(C)C(=O)OC)cc2)n1 (configuration not stated)	3.5	-0.48
CN(C)CCP(=O)(c1ccccc1)c1ccccc1	1.8	0.52
CCn1c(SCc2ccc(Cl)cc2)nnc1C(C)C	-2.1	-1.5
CCN(CC)C(=O)Sc1nc2ccccc2c(=O)n1CC1CC1	0.5	.
CCc1ccc(C(=O)CSc2ncn[nH]2)cc1	3.7	-0.032
COc1ccc(CN(C)CC(=O)Nc2ccccc2C(=O)NC2CC2)cc1F	0.2	.
Cc1ccc(/C=C/C(=O)OCC(=O)Nc2ccc3c(c2)CCC3)o1	1.3	.
Cn1c2ccccc2c2nn3c(=S)[nH]nc3nc21	1.7	0.54
O=S(=O)(c1cccc(S(=O)(=O)N2CCOCC2)c1)N1CCCCCC1	-1.6	-1.5
CN(C(=O)c1cc(-c2ccccc2)on1)C1CCCCC1	-2.7	-0.13
N#CCCN(/N=C/c1ccccc1)C1=NS(=O)(=O)c2ccccc21	2.5	.
O=C(c1ccccc1F)N1CCC(n2nc(-c3ccccc3)oc2=O)CC1	0.2	-0.15
Cc1ccc(NC(=O)C(C)N(C)Cc2ccccc2)cc1 (configuration not stated)	1.7	.
COc1cccc(S(=O)(=O)N2CCOCC2)c1	0.7	-0.79
CCNS(=O)(=O)c1ccc(F)cc1	-3.4	1.3

Some of these compounds in order of the KSHV LANA nucl value, rising:
| structure | KSHV LANA nucl |
| --- | --- |
| CCC(C)Nc1nc(NC(C)C)nc(Oc2ccc(C(=O)OC(C)C(=O)OC)cc2)n1 (configuration not stated) | -0.48 |
| O=C(c1ccccc1F)N1CCC(n2nc(-c3ccccc3)oc2=O)CC1 | -0.15 |
| Cn1c2ccccc2c2nn3c(=S)[nH]nc3nc21 | 0.54 |

Carrying on:
SMILES	Ab BasE inh	KSHV LANA nucl
Cc1cc(-c2ccc(S(=O)(=O)NCc3ccccn3)s2)on1	-3.0	.
COc1ccc(CN2CCc3ccccc3C2)cc1	0.6	-1
COC(=O)C1=CO[C@@H](C)[C@H]2CN3CCc4c([nH]c5ccccc45)[C@@H]3C[C@H]12	-1.1	0.052
Nc1nc(-c2ccc3c(c2)NC(=O)CO3)cs1	0.9	.
COCCNC(=O)c1cc(-c2ccccc2)on1	-1.8	-1
Nc1nc(N)n(-c2ccccc2)c(=Nc2ccccc2)n1	2.7	.
CC(C(=O)Nc1ccccc1C(=O)NC1CC1)N1C(=O)C2CC=CCC2C1=O (configuration not stated)	1.6	.
C=C(C)CSc1n[nH]c2nc3c(c(=O)n12)C(C)(CC)Cc1ccccc1-3 (configuration not stated)	0.5	-0.95
CC1CCCC(C)N1C(=O)C1CC(c2ccccc2F)=NO1 (configuration not stated)	0.8	-1
N#CCn1c(CSc2ncnc3sccc23)nc2ccccc2c1=O	-12	.
Cc1noc(/C=C/c2ccccc2F)c1S(=O)(=O)N1CCC(C(=O)NC2CCCCCC2)CC1	1.8	-0.079
CC(C)=NNc1nc(-c2ccccc2)cs1	-0.8	0.2
Cc1ccc(-n2c(=O)[nH]cc(C(=O)Nc3ccc(S(N)(=O)=O)cc3)c2=O)cc1C	-4.6	0.64
Nc1cc(=O)[nH]c2ncnn12	5.0	-0.78
Cc1ccc(C)c(SCC(=O)OCC(=O)N2CC(C)OC(C)C2)c1 (configuration not stated)	-1.6	.
Cc1nn(Cc2nnc(SCc3cccc(C(F)(F)F)c3)o2)c(C)c1Br	2.2	0.33
